PostGolgi ctrl: growth inhibition of yeast control strain, primary screen, counter-screen for post-Golgi transport modulator project. efflux-deficient yeast background strain, growth absorbance A615, 16 h. inhibition, % at 10 µM. hit rate 5% among 98,000
S1P2 agonist: S1P2 receptor agonists, primary screen, cell-based | Sphingosine 1-phosphate receptor 2 (Homo sapiens), O95136 | activation, % at 4.5 µM | AID 729, 2007 | S1P2-expressing cell line, agonist reporter read-out | hit rate 0.46% among 97,000; in the data active = activation above about 16%;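 note: 0% = vehicle low control and 100% = maximal reference agonist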
S1P2 antag: human S1P2 receptor antagonists, primary screen, cell-based. AID 736, 2007. hit rate 0.21% among 97,000. Sphingosine 1-phosphate receptor 2 (Homo sapiens), O95136. inhibition, % at 5 µM. cell-based S1P2 antagonist assay, inhibition at 5 uM; in the data active = inhibition above about 45%;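 note: CRE beta-lactamase reporter cells expressing human S1P2 stimulated with S1P; 0% = agonist at EC80 alone and 100% = agonist plus reference antagonist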
hDAT+cocaine: changed hDAT dopamine uptake under cocaine IC80, either direction, primary screen, cocaine antagonist project, cell-based, LLC-PK1 hDAT, [14C]-dopamine uptake, MLSMR; AID 449768, 2010; hit rate 1.3% among 110,000; B-score at 10 µM; LLC-PK1 hDAT cells, [14C]-dopamine uptake with cocaine IC80; actives deviate in either direction;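 active = Z score or B-score, a plate-position-corrected score, falls beyond the plate's 99.7% confidence bounds, in either direction; inactive = both scores lie inside the 99.7% bounds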;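 note: scored against the spread of the other compound wells on the same plate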
Target sequence (Q01959 whole entry, looked up): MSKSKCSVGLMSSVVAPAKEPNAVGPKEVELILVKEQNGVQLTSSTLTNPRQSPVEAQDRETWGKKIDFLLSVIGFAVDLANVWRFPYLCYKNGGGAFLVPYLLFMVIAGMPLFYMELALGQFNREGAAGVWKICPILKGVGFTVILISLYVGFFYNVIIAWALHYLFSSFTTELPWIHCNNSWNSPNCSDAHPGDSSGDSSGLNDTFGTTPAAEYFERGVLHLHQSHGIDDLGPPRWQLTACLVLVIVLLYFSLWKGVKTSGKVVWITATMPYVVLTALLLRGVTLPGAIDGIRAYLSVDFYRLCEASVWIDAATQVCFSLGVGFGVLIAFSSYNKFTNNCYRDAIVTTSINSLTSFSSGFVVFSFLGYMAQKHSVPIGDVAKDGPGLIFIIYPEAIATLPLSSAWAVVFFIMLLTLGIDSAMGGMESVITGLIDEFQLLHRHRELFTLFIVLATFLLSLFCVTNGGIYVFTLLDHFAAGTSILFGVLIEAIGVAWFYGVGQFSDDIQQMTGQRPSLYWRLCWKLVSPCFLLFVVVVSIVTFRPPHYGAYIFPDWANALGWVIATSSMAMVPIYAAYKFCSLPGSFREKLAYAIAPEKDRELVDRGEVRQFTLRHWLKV
PostGolgi yeast: phenotypic screen on post-Golgi transport, primary screen | inhibition, % at 10 µM | post-Golgi transport phenotypic cell assay | AID 739, 2007 | hit rate 0.9% among 98,000;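 note: yeast cells grown in 1536-well plates; yeast grown about 18 h at 30C before absorbance read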
Starred values were filed as active, the others as inactive; nt = not tested or not shown. Cut-off read from the data, not from the text of the source, unless noted: active = inhibition above about 30%; inactive = the rest.

#1 CCC(C)(C)NC(=O)CC(c1ccc(OC)cc1)n1cccc1 (stereo not drawn)
#2 Cc1ccc(/C=C/C(=O)c2ccccc2)cc1
#3 Cc1nnnn1-c1cccc(C(=O)O)c1
#4 COc1cc(NS(C)(=O)=O)c(OC)cc1NC(=O)c1cccc(F)c1
#5 O=C(c1ccc(Br)cc1)c1cc(-c2ccccn2)c(N2CCOCC2)s1
#6 O=C(NC1CCS(=O)(=O)C1)c1c(NC(=O)C2COc3ccccc3O2)sc2c1CCCC2 (stereo not drawn)
Assay by compound	1	2	3	4	5	6
PostGolgi ctrl	17	3	-1	5	43*	6
S1P2 agonist	-1	3	-2	-4	-2	-1
S1P2 antag	-6	-7	-22	-1	11	-22
hDAT+cocaine	0.87	0.12	-0.84	0.011	0.11	0.23
PostGolgi yeast	1	6	4	-1	-4	19

#7 O=C(Cc1ccc(S(=O)(=O)N2CCOCC2)s1)Nc1nc2c(s1)CCCC2
#8 COc1ccccc1NC(=O)C1=C(C)Nc2nnnn2C1c1cccc(Br)c1 (stereo not drawn)
#9 COc1ccc(C2=NN(C)C(=NCc3ccccc3)SC2)cc1
#10 O=C(NCc1ccccc1Cl)c1ccc2c(=O)n(CCCN3CCCC3=O)c(=S)[nH]c2c1
#11 O=C(O)CSc1nnc(Cn2c(=O)sc3ccccc32)n1-c1cccc(Cl)c1
#12 O=S(=O)(Nc1ccc(S(=O)(=O)N2CCCCC2)cc1)c1cccs1
Assay by compound	7	8	9	10	11	12
PostGolgi ctrl	-7	2	6	1	1	-1
S1P2 agonist	-12	-6	-5	2	-4	-1
S1P2 antag	7	7	8	7	12	-11
hDAT+cocaine	2.3	-0.41	0.26	-1.2	0.19	1.8
PostGolgi yeast	-3	-5	4	-2	1	-6

Arranged by the number under S1P2 antag (smallest number first): three of the compounds above
#	molecule	S1P2 antag
12	O=S(=O)(Nc1ccc(S(=O)(=O)N2CCCCC2)cc1)c1cccs1	-11
7	O=C(Cc1ccc(S(=O)(=O)N2CCOCC2)s1)Nc1nc2c(s1)CCCC2	7
9	COc1ccc(C2=NN(C)C(=NCc3ccccc3)SC2)cc1	8

(continued)
#13 CCCCOc1ncnc2c1[nH]c1ccc(OC)cc12
#14 COC(=O)c1cc(CSc2nc3ccc(C)cc3[nH]2)oc1C
#15 COc1ccc(OCCSc2nnnn2C2CCCCC2)cc1
#16 CCn1c2ccccc2c2cc(NC(=O)C(C)C)ccc21
#17 COC(=O)C1=C(C(=O)OC)C(c2cc(Cl)ccc2O)c2sc(=O)[nH]c2S1 (stereo not drawn)
#18 CCOC(=O)CN1CC23C=CC(O2)C(C(=O)NC2CCCCC2)C3C1=O (stereo not drawn)
Assay by compound	13	14	15	16	17	18
PostGolgi ctrl	13	nt	25	5	11	4
S1P2 agonist	1	10	-10	0	-10	-8
S1P2 antag	-21	-22	1	21	-7	-11
hDAT+cocaine	0.31	-0.59	1.4	-0.07	-0.085	1.1
PostGolgi yeast	1	nt	14	-6	-3	4

In the list so far, these contain a Cl atom.
#10 O=C(NCc1ccccc1Cl)c1ccc2c(=O)n(CCCN3CCCC3=O)c(=S)[nH]c2c1
#11 O=C(O)CSc1nnc(Cn2c(=O)sc3ccccc32)n1-c1cccc(Cl)c1
#17 COC(=O)C1=C(C(=O)OC)C(c2cc(Cl)ccc2O)c2sc(=O)[nH]c2S1 (stereo not drawn)
Assay by compound	10	11	17
PostGolgi ctrl	1	1	11
S1P2 agonist	2	-4	-10
S1P2 antag	7	12	-7
hDAT+cocaine	-1.2	0.19	-0.085
PostGolgi yeast	-2	1	-3

Back to the main list, starting 2 compounds before the break.
#17 COC(=O)C1=C(C(=O)OC)C(c2cc(Cl)ccc2O)c2sc(=O)[nH]c2S1 (stereo not drawn)
#18 CCOC(=O)CN1CC23C=CC(O2)C(C(=O)NC2CCCCC2)C3C1=O (stereo not drawn)
#19 O=C(Nc1nc2ccc(Cl)cc2s1)C1CCCO1 (stereo not drawn)
#20 Cn1c(Nn2cnnc2)nc2ccccc21
#21 Cc1c(OCC(=O)OC(C)C)ccc2c3c(c(=O)oc12)CCC3
#22 CC(C)COC(=O)Nc1nnc(SCCOc2ccccc2)s1
#23 Cn1c(CCN2CCN(c3ccccc3)CC2)nc2cc(NC(=O)c3ccco3)ccc21
#24 O=S(=O)(c1ccc(F)cc1)N1CCCC(CO)C1 (stereo not drawn)
#25 CCn1c(CNc2ccc(OC)cc2)nnc1SCC(=O)N1CCCc2ccccc21
Assay by compound	17	18	19	20	21	22	23	24	25
PostGolgi ctrl	11	4	0	-5	9	-1	5	19	2
S1P2 agonist	-10	-8	-3	-3	-3	-6	-4	-5	-6
S1P2 antag	-7	-11	-7	1	-22	17	7	-3	-37
hDAT+cocaine	-0.085	1.1	0.55	-0.49	-0.3	0.85	nt	nt	-0.024
PostGolgi yeast	-3	4	-7	19	19	-7	3	9	-7

Part of the list above, field by field.
19. O=C(Nc1nc2ccc(Cl)cc2s1)C1CCCO1 (stereo not drawn)
- PostGolgi ctrl: 0
- S1P2 agonist: -3
- S1P2 antag: -7
- hDAT+cocaine: 0.55
- PostGolgi yeast: -7

20. Cn1c(Nn2cnnc2)nc2ccccc21
- PostGolgi ctrl: -5
- S1P2 agonist: -3
- S1P2 antag: 1
- hDAT+cocaine: -0.49
- PostGolgi yeast: 19

Screens deposited in PubChem by several laboratories.

An excerpt; rates above refer to the full screens.
